c-Myc SMM: c-Myc (human) binding; AID 624141; actives 1.5% (n = 17,000); small molecule microarray, His-c-Myc binding, anti-His fluorescence; P01106; calls only;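 active = spot fluorescence over background with P-value below 7% in all four replicate spots, showing protein binding; compounds were printed on slides so no solution concentration is given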;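 note: score is binary with 100 for all four spots passing and 0 otherwise; about 2 pmol printed per array spot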
mut p53 SMM: mutant p53 (human) binding | small molecule microarray binding, anti-GST fluorescence | calls only | actives 0.4% (n = 17,000);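 active = compounds whose four printed spots each glow above background more than chance allows, each with a p-value under 7%; compounds were printed on slides so no solution concentration is given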;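 note: about 2 pmol printed per array spot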
ID4 binder: binders of human ID4 protein. small molecule microarray, Flag-ID4 binding, fluorescence F/B. P47928. actives 1.2% (n = 31,000). AID 624137. calls only;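 active = spot signal over background at p below 0.07 in all four prints; compounds were printed on slides so no solution concentration is given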;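 note: a binder raises fluorescence above local background on the spot; about 2 pmol printed per array spot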
Target sequence (P47928 whole entry, looked up): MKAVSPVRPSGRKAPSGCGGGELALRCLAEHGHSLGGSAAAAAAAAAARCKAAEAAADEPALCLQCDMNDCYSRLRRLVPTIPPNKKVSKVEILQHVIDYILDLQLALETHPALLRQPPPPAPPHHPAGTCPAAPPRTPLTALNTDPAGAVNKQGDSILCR
STAT3 SMM: binders of human STAT3; P40763; Small molecule microarray, His-STAT3 binding, anti-His fluorescence; calls only; actives 0.2% (n = 17,000);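 active = compounds whose four printed spots each show fluorescence over background unusually high for their array block, chance value under 7%; compounds were printed on slides so no solution concentration is given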;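 note: about 2 pmol printed per array spot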
Target sequence (P40763 whole entry, looked up): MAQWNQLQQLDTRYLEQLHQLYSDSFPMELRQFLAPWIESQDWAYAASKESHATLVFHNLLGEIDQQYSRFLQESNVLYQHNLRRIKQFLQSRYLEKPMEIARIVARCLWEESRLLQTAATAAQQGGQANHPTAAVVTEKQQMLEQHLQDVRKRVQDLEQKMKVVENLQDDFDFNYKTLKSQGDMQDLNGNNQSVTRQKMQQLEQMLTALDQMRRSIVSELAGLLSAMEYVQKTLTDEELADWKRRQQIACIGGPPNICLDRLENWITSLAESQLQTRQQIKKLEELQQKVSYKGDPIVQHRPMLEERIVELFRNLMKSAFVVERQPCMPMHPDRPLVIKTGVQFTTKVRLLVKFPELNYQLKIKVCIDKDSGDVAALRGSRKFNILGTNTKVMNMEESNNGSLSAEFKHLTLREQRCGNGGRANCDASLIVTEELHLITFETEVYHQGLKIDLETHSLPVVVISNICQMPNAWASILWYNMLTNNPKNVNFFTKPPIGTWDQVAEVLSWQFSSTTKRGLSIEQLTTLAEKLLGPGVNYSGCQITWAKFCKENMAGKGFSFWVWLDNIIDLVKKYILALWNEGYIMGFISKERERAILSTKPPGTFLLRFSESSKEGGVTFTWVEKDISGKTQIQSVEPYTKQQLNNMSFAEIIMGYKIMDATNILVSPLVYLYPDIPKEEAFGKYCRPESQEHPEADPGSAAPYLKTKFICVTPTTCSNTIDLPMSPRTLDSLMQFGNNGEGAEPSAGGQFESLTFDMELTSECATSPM
Calls only; i = inactive; nt = no result given; + = active, no number.

SMILES	c-Myc SMM	mut p53 SMM	ID4 binder	STAT3 SMM
C[C@H](CO)N1C[C@H](C)[C@H](CN(C)C(=O)Nc2ccc3c(c2)OCO3)Oc2ccc(NC(=O)C3CC3)cc2CC1=O	i	i	nt	i
COc1ccc(N(C(=O)C2CCCCC2)S(=O)(=O)c2cc(OC)ccc2OC)cc1	i	i	i	i
CN(C)CCC1(c2ccc(Cl)cc2)Cc2ccccc2C(=O)O1 (stereo unspecified)	i	i	i	i
C[C@@H]1CN([C@@H](C)CO)C(=O)c2cccc(NC(=O)c3ccncc3)c2O[C@H]1CN(C)C(=O)NC1CCCCC1	i	i	i	i
CC(C)NC(=O)Nc1ccc2c(c1)C(=O)N([C@H](C)CO)C[C@H](C)[C@H](CN(C)C)OCCCC[C@@H](C)O2	i	i	i	i
C[C@H]1CCCCO[C@H](CN(C)C(=O)c2ccncc2)[C@@H](C)CN([C@@H](C)CO)C(=O)c2cc(NC(=O)Cc3ccccc3)ccc2O1	i	i	i	i
Cc1ccc(S(=O)(=O)N(C)C[C@@H]2OCCCC[C@H](C)Oc3ccc(NC(=O)c4ccccc4)cc3C(=O)N([C@H](C)CO)C[C@@H]2C)cc1	i	i	nt	i
Cc1noc(C)c1S(=O)(=O)N(C)C[C@H]1Oc2ccc(NC(=O)CCN3CCOCC3)cc2CC(=O)N([C@H](C)CO)C[C@H]1C	i	i	i	i
Cc1cc(O)cc(=O)o1	i	i	nt	i
OCCN1CCN(CC/C=C2/c3ccccc3Sc3ccc(C(F)(F)F)cc32)CC1	i	i	i	i
C[C@@H]1CCCCO[C@@H](CN(C)C(=O)Nc2ccc3c(c2)OCO3)[C@H](C)CN([C@@H](C)CO)C(=O)c2cc(NS(C)(=O)=O)ccc2O1	i	i	i	i
C=CCOC(=O)[C@H]1[C@@H]2C(=O)O[C@@H](c3ccccc3)[C@@H](c3ccccc3)N2[C@@H](c2ccc(OCCOC(=O)[C@@H]3C[C@@H]4C(=O)N[C@@H](CCCCNC(C)=O)C(=O)N4[C@@H]3c3ccc(O)cc3)cc2)[C@]12C(=O)Nc1ccc(I)cc12	i	i	i	i
Cc1noc(C)c1NC(=O)N(C)C[C@@H]1Oc2c(NC(=O)c3ccncc3)cccc2C(=O)N([C@H](C)CO)C[C@H]1C	i	i	i	i
C[C@H]1CN([C@@H](C)CO)C(=O)CCCn2cc(nn2)CO[C@@H]1CN(C)C(=O)Nc1ccccc1C(F)(F)F	i	i	i	i
CNC(=O)C1OC(n2cnc3c(NCc4cccc(I)c4)nc(Cl)nc32)C(O)C1O (stereo unspecified)	i	i	i	i
Cc1noc(C)c1S(=O)(=O)Nc1ccc2c(c1)CC(=O)N([C@H](C)CO)C[C@H](C)[C@@H](CN(C)C(=O)Nc1ccc(F)cc1)O2	i	i	i	i
O=C(CS(=O)c1ccc(C(F)(F)F)cc1[N+](=O)[O-])Oc1ccc(Cl)cc1 (stereo unspecified)	i	i	i	i
CCOC(=O)COc1ccc2c(=O)c(-c3ccccc3OC)c(C(F)(F)F)oc2c1	i	i	i	i
C[C@@H]1CN([C@@H](C)CO)C(=O)c2cc(N(C)C)ccc2O[C@@H](C)CCCCO[C@H]1CN(C)Cc1ccncc1	i	i	i	i
CCOc1cc([N+](=O)[O-])ccc1NC(=O)CC1Sc2ccccc2NC1=O (stereo unspecified)	i	i	i	i
Cc1noc(C)c1S(=O)(=O)N(C)C[C@@H]1Oc2c(NS(C)(=O)=O)cccc2C(=O)N([C@@H](C)CO)C[C@H]1C	i	i	i	i
C[C@@H]1CN([C@@H](C)CO)C(=O)c2cc(NC(=O)Cc3ccccc3)ccc2O[C@@H](C)CCCCO[C@H]1CN(C)C(=O)c1ccncc1	i	i	i	i
O=C1OCc2cc3cccc(O[C@@H]4O[C@H](CO)[C@@H](O)[C@H](O)[C@H]4O)c3c(O)c21	i	i	nt	i
Cc1c(C(=O)Nc2ccccc2C(=O)NCc2ccco2)cccc1[N+](=O)[O-]	i	i	i	i
COc1ccc(C#Cc2cnc3c(c2)C(=O)N([C@H](C)CO)C[C@H](C)[C@H](CN(C)C(=O)NC(C)C)O3)cc1OC	i	i	nt	i

New compounds follow:
SMILES	c-Myc SMM	mut p53 SMM	ID4 binder	STAT3 SMM
CC1(CO)C=Cc2c(cc(O)c3c(=O)c(-c4ccc(O)cc4)coc23)O1 (stereo unspecified)	i	i	nt	i
CCCCNC(=O)C(COCc1ccccc1)OC(=O)c1ccccc1 (stereo unspecified)	i	i	i	i
C[C@@H]1CN([C@H](C)CO)C(=O)c2cccc(NC(=O)C3CCOCC3)c2O[C@H]1CN(C)S(=O)(=O)c1cccs1	i	i	i	i
O=C(CSc1nc(-c2ccccc2)cc(C(F)(F)F)n1)Nc1ccc(F)cc1	i	i	i	i
C=C1C2CCC3C(CCC4[C@]3(C)CCC[C@]4(C)C(=O)O)(C2)C1OC(=O)/C(C)=C\C (stereo partly specified)	i	i	i	i
C[C@@H]1CN([C@H](C)CO)C(=O)Cc2cc(NS(=O)(=O)c3ccc(Cl)cc3)ccc2O[C@H]1CN(C)CC1CCCCC1	+	i	i	i
Cc1nc(CSc2nc3[nH]ncc3c(=O)n2-c2ccccc2)cs1	i	i	i	i
C/C=C(/C)C(=O)OC(COc1c2ccoc2c(OC)c2oc(=O)ccc12)C(C)(C)O (stereo unspecified)	i	i	i	i
CCOC(=O)c1c(NC(=S)Nc2cnccn2)sc(C)c1-c1ccccc1	i	i	i	i
COc1ccc([N+](=O)[O-])cc1NC(=O)C(C)N1C(=O)C2CC=C(Cl)CC2C1=O (stereo unspecified)	i	i	i	i
COc1ccc(S(=O)(=O)N(C)C[C@@H]2Oc3c(NC(=O)c4nc5ccccc5s4)cccc3C(=O)N([C@@H](C)CO)C[C@H]2C)cc1	i	i	i	i
NCc1ccccc1CC(=O)N[C@@H]1C(=O)N2C(C(=O)O)=C(CSc3nnnn3CC(=O)O)CS[C@H]12	i	i	i	i
O=S(=O)(Nc1cccnc1)c1cccc(S(=O)(=O)c2ccc(Cl)c(Cl)c2)c1	i	i	i	i
CC(C)=CCc1c(O)cc(O)c2c1OC(c1ccc(O)c(O)c1)CC2=O (stereo unspecified)	i	i	i	i
CNC[C@H]1Oc2ccc(NC(=O)CCCN(C)C)cc2C(=O)N([C@H](C)CO)C[C@@H]1C	i	i	i	i
Cc1noc(C)c1NC(=O)Nc1ccc2c(c1)C(=O)N([C@H](C)CO)C[C@H](C)[C@@H](CN(C)C(=O)CCCN(C)C)OCCCC[C@@H](C)O2	i	i	i	i
NS(=O)(=O)c1ccc(CCNc2ncnc3c2c(-c2ccccc2)cn3-c2ccc(F)cc2)cc1	i	i	i	i
C[C@H]1CCCCO[C@@H](CN(C)C)[C@@H](C)CN([C@@H](C)CO)C(=O)c2cc(NS(=O)(=O)c3cccs3)ccc2O1	i	i	i	i
C[C@@H]1CCCCO[C@@H](CN(C)S(=O)(=O)c2cccs2)[C@H](C)CN([C@@H](C)CO)C(=O)c2cc(N(C)C)ccc2O1	i	i	i	i
CC(C)NC(=O)N(C)C[C@@H]1Oc2ncc(C#CC(C)(C)O)cc2C(=O)N([C@H](C)CO)C[C@@H]1C	i	i	i	i
Cc1noc(C)c1S(=O)(=O)Nc1ccc2c(c1)C(=O)N([C@H](C)CO)C[C@@H](C)[C@@H](CN(C)C(=O)CCC(F)(F)F)OCCCC[C@H](C)O2	i	i	i	i
COc1ccc(NC(=O)Nc2cccc3c2O[C@H](CN(C)C(=O)Nc2cccc4ccccc24)[C@H](C)CN([C@@H](C)CO)C3=O)cc1	i	i	nt	i
C[C@H](CO)N1C[C@H](C)[C@H](CN(C)C(=O)Nc2ccccc2)Oc2ccc(NS(C)(=O)=O)cc2CC1=O	i	i	i	i
COc1ccc(CN(C)C[C@H]2Oc3c(NS(=O)(=O)c4cccs4)cccc3C(=O)N([C@@H](C)CO)C[C@H]2C)cc1	i	i	i	i
C[C@H]1CN([C@@H](C)CO)C(=O)c2cc(NC(=O)CCCN(C)C)ccc2O[C@H]1CN(C)C(=O)Nc1ccc(F)cc1	i	i	nt	i

Next structures:
SMILES	c-Myc SMM	mut p53 SMM	ID4 binder	STAT3 SMM
CC1CCC2(NC1)OC1CC3C4CC=C5CC(O[C@@H]6O[C@H](CO)[C@@H](O[C@@H]7O[C@@H](C)[C@H](O)[C@@H](O)[C@H]7O)[C@H](O)[C@H]6O)CCC5(C)C4CCC3(C)C1C2C (stereo partly specified)	i	i	i	i
c1ccc(-c2csc3nnc(SCc4ccc5c(c4)OCCO5)n23)cc1	i	i	i	i
Cc1noc(C)c1S(=O)(=O)Nc1ccc2c(c1)CC(=O)N([C@H](C)CO)C[C@@H](C)[C@@H](CN(C)Cc1ccc(Oc3ccccc3)cc1)O2	i	i	nt	i
O=C(C1=C[C@@H](c2csc3ccccc23)C[C@@H](OCCCCO)O1)N1CCCCCCC1	i	i	i	i
C[C@@H]1CCCCO[C@@H](CN(C)S(=O)(=O)c2cccs2)[C@H](C)CN([C@H](C)CO)C(=O)c2cc(NS(=O)(=O)c3cccs3)ccc2O1	i	i	i	i
Cc1noc(C)c1S(=O)(=O)N(C)C[C@H]1Oc2ccc(NS(=O)(=O)c3cccs3)cc2C(=O)N([C@H](C)CO)C[C@H]1C	i	i	i	i
O=C(Nc1ccc(OCc2nc3ccccc3s2)cc1)c1cccc(I)c1	i	i	i	i
Cc1cc(C(=O)Nc2cccc3c2O[C@@H](CN(C)S(=O)(=O)c2cn(C)cn2)[C@H](C)CN([C@@H](C)CO)C3=O)n(C)n1	i	i	i	i
COCCNC(=S)Nc1nc(OC)cc(OC)n1	+	i	i	i
COc1ccc(S(=O)(=O)Nc2ccc3c(c2)C(=O)N([C@@H](C)CO)C[C@@H](C)[C@@H](CN(C)S(=O)(=O)c2ccc(F)cc2)OCCCC[C@@H](C)O3)cc1	i	i	nt	i
C[C@H](CO)N1C[C@H](C)[C@H](CN(C)Cc2ccccc2)OCCCC[C@H](C)Oc2ccc(NC(=O)CCC(F)(F)F)cc2C1=O	i	i	i	i
CCc1ccc(OCc2ccccc2C(=O)Nc2ccc3nc(C)cc(N)c3c2)cc1	i	i	i	i
C[C@@H]1CN([C@@H](C)CO)C(=O)c2cccc(N(C)C)c2O[C@H]1CN(C)C(=O)NC1CCCCC1	i	i	i	i
C[C@@H]1CN([C@@H](C)CO)C(=O)CCCn2cc(nn2)CO[C@H]1CN(C)C(=O)Nc1ccccc1C(F)(F)F	i	i	i	i
C[C@@H]1CN([C@H](C)CO)C(=O)Cc2cc(NC(=O)C3CC3)ccc2O[C@H]1CN(C)C	i	i	i	i
O=c1c2c3c(sc2nc2c4ccccc4c(NCCOCCO)nn12)CCCC3	i	i	i	i
CCn1cc(NC(=S)Nc2cc(Cl)ccc2OC)c(C(N)=O)n1	i	i	i	i
C[C@@H]1CN([C@@H](C)CO)C(=O)c2cccc(NC(=O)c3ccncc3)c2O[C@@H]1CN(C)C(=O)Nc1ccc(C(F)(F)F)cc1	i	i	i	i
COC(=O)C1(Cc2ccc(O)c(CC3OC3(C)C)c2)OC(=O)C(=O)C1c1ccc(O)cc1 (stereo unspecified)	i	i	nt	i
CCn1c(SCC(=O)Nc2cccc(Cl)c2)nnc1-c1ccc(Cl)cc1Cl	i	i	i	i
CN(CCc1ccc(Cl)c(Cl)c1)CCN1CCCC1	i	i	nt	i
CCN(CC(=O)Nc1ccc(Br)cc1)S(=O)(=O)c1ccc(C)cc1	i	i	i	i
COC(=O)c1cccc(COC(=O)c2ccc(NC(=O)c3ccccc3)cc2)c1	i	i	i	i
O=C(CSc1ncccn1)Nc1ccc([N+](=O)[O-])cc1	i	i	i	i
Cc1ccc(S(=O)(=O)N(C)C[C@H]2Oc3ccc(NC(=O)C4CC4)cc3CC(=O)N([C@H](C)CO)C[C@H]2C)cc1	i	i	i	i

Later entries.
SMILES	c-Myc SMM	mut p53 SMM	ID4 binder	STAT3 SMM
Cc1noc(C)c1NC(=O)N(C)C[C@@H]1OCCCC[C@H](C)Oc2ccc(NC(=O)c3ccncc3)cc2C(=O)N([C@H](C)CO)C[C@H]1C	i	i	i	i
C[C@@H]1CN([C@@H](C)CO)C(=O)c2cc(NC(=O)Cc3ccccc3)ccc2O[C@@H]1CN(C)C(=O)Nc1ccccc1	i	i	i	i
CCO[C@H]1OC(C(=O)O)=C[C@@H](c2ccc3c(c2)OCO3)[C@@H]1CCCO	i	i	i	i
C[C@@H]1CN([C@H](C)CO)C(=O)c2cc(NC(=O)Cc3ccccc3)ccc2O[C@@H]1CN(C)Cc1ccc2c(c1)OCO2	i	i	nt	i
Cc1noc(C)c1NC(=O)N(C)C[C@@H]1Oc2c(cccc2N(C)C)C(=O)N([C@@H](C)CO)C[C@H]1C	i	i	i	i
COc1ccc(N2CCN(c3nc(NCCO)nc(N4CCOCC4)n3)CC2)cc1	i	i	i	i

Screening results as filed in PubChem BioAssay.

Only part of the results is shown. The share of hits here may be higher or lower than overall.
